eIF4H FP inh – inhibitors of RNA binding by human eIF4H; Q15056; eIF4H fluorescence polarization binding assay; inhibition, % at 35 µM; 290,000 compounds, 0.94% hits; AID 2012;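 active = 50% or more with normal probe brightness, or confirmed in later tests; inconclusive = above 50% with abnormal brightness, or retests that disagree; inactive = below 50% or failed in later tests; about a fifth of its hits are not listed in these tables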;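 note: calls also rest on retests at 20 µM and on dose response follow-up; 0% = protein and probe with vehicle and 100% = probe without protein; strong numbers were not always called active; many hits fall short of the cut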
PABP polyA inh – PABP-poly(A) binding inhibition | P11940 | PABP-poly(A) RNA binding, fluorescence polarization | 290,000 compounds, 1% hits | inhibition, % at 35 µM;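 active = 50% or more with normal probe brightness, or confirmed in later tests; inconclusive = above 50% with abnormal brightness, or retests that disagree; inactive = below 50% or failed in later tests; about a fifth of its hits are not listed in these tables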;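 note: calls also rest on retests at 20 µM and on dose response follow-up; controls were probe without protein and protein plus probe with vehicle; some compounds called inactive have numbers as strong as hits; many hits fall short of the cut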
MT1-MMP act inh – blocks activation of human MT1-MMP; GFP/RFP ratio change, % at 20 µM; 360,000 compounds, 0.061% hits; HT1080 RFP-PRO-GFP cells, GFP/RFP ratio fluorescence, overnight; percent of plate control window, DMSO zero;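 active = GFP/RFP ratio change of at least 30% with cell ATP level not reduced by more than half and red fluorescence within 50% of control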; note: strong numbers were not always called active
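system = RFP-PRO-GFP reporter HT1080 cells | dosing = 20 µM single dose, 1% DMSO | timing = overnight cell settling, then overnight compound exposure, 37 °C, 5% CO2 | read-out basis = GFP/RFP fluorescence ratio | controls = DMSO and RFP-L50D-GFP cell wells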
CSC inhib – cancer stem cell inhibition. inhibition, % at 7.5 µM. 300,000 compounds, 1.1% hits. cancer stem cell-like cells viability, luminescence;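 active = mean at 75% or more and at least half the replicates too; inconclusive = mean and replicates disagree; tested in HMLE shEcad cells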;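 note: 0% = median of negative and 100% = median of positive control wells; the first replicate is given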
Rce1 inh – yeast Ras-converting enzyme inhibition | Q03530 | yeast membranes, quenched prenylated peptide cleavage fluorescence | calls only | 290,000 compounds, 0.27% hits | AID 2563;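 active = fall in fluorescence gain of 50% or more versus controls, with final raw signal at or below 3038400; inconclusive = same 50% fall but final raw signal above 3038400; inactive = fall in fluorescence gain under 50%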;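 note: plate controls were neutral control wells for no effect and wells lacking membranes for full effect; tested at 10 µM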
Target sequence (Q03530 whole entry, looked up): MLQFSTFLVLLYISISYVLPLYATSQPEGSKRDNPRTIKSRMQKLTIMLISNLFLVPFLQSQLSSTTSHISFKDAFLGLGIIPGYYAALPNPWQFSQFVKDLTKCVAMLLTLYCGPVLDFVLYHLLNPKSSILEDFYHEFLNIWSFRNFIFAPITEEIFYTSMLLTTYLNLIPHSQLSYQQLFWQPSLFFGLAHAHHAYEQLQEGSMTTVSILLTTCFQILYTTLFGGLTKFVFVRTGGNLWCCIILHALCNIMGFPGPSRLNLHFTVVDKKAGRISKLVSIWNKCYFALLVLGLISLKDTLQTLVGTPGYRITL
Yeast UUG start – modulators of start codon recognition fidelity in yeast | S. cerevisiae UUG-firefly luciferase reporter, luminescence/redox ratio | activity score, % at 18.7 µM | 350,000 compounds, 0.13% hits | AID 602363;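 active = replicate mean at a twofold rise or more, about +100% in these data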;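 note: firefly luciferase made from a UUG start codon reports start codon fidelity; reporter light over untreated wells divided by growth signal over untreated wells; some hits fall short of that in this replicate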
HIV Env fusion – HIV envelope-mediated fusion inhibition. HeLa-JRFL Env/CEM21 cell fusion, luciferase. inhibition, % at 12.3 µM. 360,000 compounds, 1.1% hits;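 active = mean replicate inhibition score of at least 50 and every replicate individually at or above 50; inconclusive = only one of the two criteria met; inactive = mean below 50 and not all replicates reaching 50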;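 note: 0% = plate neutral controls and 100% = maraviroc near 300 nM; one replicate is shown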
MT1-MMP act inh RFP – also measured in MT1-MMP act inh; calls as there; RFP signal change, %; measured here: RFP expression control read;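 0 = vehicle wells; hits needed this value within 50% of zero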
Starred values were filed as active, the others as inactive; i = inactive; u = inconclusive; x = not tested or not shown; & = joins results of further samples; [ ] = dose if it differs, or a comment.

Results follow in this order: MT1-MMP act inh	Yeast UUG start	MT1-MMP act inh RFP	HIV Env fusion	eIF4H FP inh	Rce1 inh	CSC inhib	PABP polyA inh
> Cn1c(=O)[nH]c(=O)c2c1nc(N1CCCCCC1)n2CC(N)=O
    -1	-2	8	x	0	i	-2	1
> CCSc1nc2sccc2c(=O)n1-c1ccccc1
    -3	3	-4	-12	-4	i	43	4
> COc1cccc(NC(=O)CN(C)C(=O)C2=COCCO2)c1
    -4	-6	0	-8	x	x	x	x
> S=C(NCCC(c1ccccc1)c1ccccc1)Nc1ccccc1Cl
    3	-23	3	x	-9	i	23	-5
> Cc1ccc(S(=O)(=O)N(C)CC(=O)O/N=C(\N)c2cccnc2)cc1
    -2	-11	1	10	7	i	-6	-4
> c1ccc(CN=C2NN=C(c3ccccc3)CS2)cc1
    -1	-20	-2	-21	-5	i	-1	4
> CCN(CC)CCCN(Cc1cc2cc3c(cc2[nH]c1=O)OCCO3)C(=O)Nc1ccc(F)cc1
    -6	-12	0	x	-5	i	-7	-7
> COc1cc2c(=O)n(CCC(=O)NCC3CCCO3)c(=O)n(CC(=O)Nc3ccc(C)cc3)c2cc1OC (configuration not stated)
    0	-19	2	-7	0	i	-3	14
> O=C(CSc1ccc2ccccc2n1)c1ccc2c(c1)OCO2
    4	1	-1	-74	-3	i	2	7
> Cc1cc(C)n(C(=O)c2cccc(S(=O)(=O)N3CCOCC3)c2)n1
    4	-18	5	5	-2	i	-8	3
> Cc1cccc(N2C(=O)CC(Sc3nccc(C)n3)C2=O)c1 (configuration not stated)
    6	-6	0	-12	-4	i	-7	-5
> N#CCN1CCC/C1=C\[N+](=O)[O-]
    2	15	4	-37	7	i	0	-1
> CCOC(=O)C1CCN(C(=O)c2ccc(C)o2)CC1
    -4	x	-2	1	x	x	-12	x
> COCc1cc(CN2CCCC2)c(O)c2ncccc12
    -6	-40	-2	x	18	i	36	-6
> Cc1cc(OCC(=O)NC2CC(C)(C)NC(C)(C)C2)c(C)cc1Br
    0	3	1	12	-4	i	9	12
> COC(=O)c1ccccc1NC(=S)NC(NC(=O)COc1ccccc1)C(Cl)(Cl)Cl (configuration not stated)
    -1	-7	7	-78	2	i	10	-4
> CCCCCNC(=O)c1ccc2c(=O)[nH]c3c(C(=O)NCC4CCCO4)sc(=S)n3c2c1 (configuration not stated)
    19	4	-10	43	5	x	5	37
> NC(=S)NN=C(Cc1ccccc1)Cc1ccccc1
    -21	x	-18	-7	3	i	27	-2
> CCOC(=O)c1ccc(NS(=O)(=O)c2ccc3c(c2)NC(=O)CCS3)cc1
    -3	3	-7	-2	-10	i	1	-5
> CC(C)C(=O)Nc1cccc(C(=O)N2CCCCC2C)c1 (configuration not stated)
    -10	-2	-4	-22	-1	i	-8	-6
> COc1ccc([C@H]2CC(=O)C=C(c3ccc(OC(F)(F)F)cc3)C2)cc1
    2	-3	2	-4	x	x	18	x
> NC(=O)C(Cc1ccccc1)NS(=O)(=O)c1ccc(N2CCCC2=O)cc1 (configuration not stated)
    -5	-19	-5	x	-9	i	-6	-4
> COc1ccccc1C(=O)C1CCCN(C(=O)C2CCCC2)C1 (configuration not stated)
    -2	x	2	-20	-5	i	6	10
> O=C(CNC(=O)c1cccc(F)c1)N/N=C/c1cccc([N+](=O)[O-])c1
    7	x	2	-10	-4	i	-1	-6
> Oc1cccc2ccc(/C=C/c3c(F)cccc3Cl)nc12
    4	x	1	-178	14	i	22	-14
> CC(/C=N/Nc1nc2ccccc2[nH]1)=C\c1ccccc1
    -20	x	-27	-271	6	i	43	-14
> COc1ccc(CCNS(=O)(=O)c2cccc([N+](=O)[O-])c2)cc1OC
    1	-12	1	2	7	i	-15	9
> COc1cccc(-c2nc(CS(=O)(=O)CC(=O)NCc3ccc4c(c3)OCO4)c(C)o2)c1
    1	-17	-1	-5	-7	i	8	-1
> O=C(CCCN1C(=O)c2cccc3cccc(c23)C1=O)N1CCN(c2ncccn2)CC1
    -2	x	1	-3	6	i	-13	12
> Nn1c(SCC(=O)N2CCCc3ccccc32)nnc1-c1ccc(Cl)cc1
    2	-22	-5	-18	1	i	1	12
> O=C(COC(=O)/C=C/c1cccs1)Nc1nc(-c2ccccc2)cs1
    -3	x	1	-22	-7	i	-6	-15
> COc1cc(NC(=O)COc2cc(O)c3c(c2)OC(C)(C)CC3=O)cc(OC)c1
    3	13	-10	x	4	i	1	-7
> Nc1nnc(C(c2ccccc2)c2ccccc2)s1
    1	-21	4	-1	1	i	8	-8
> O=C(CSc1n[nH]c(-c2cccs2)n1)N1CCCC1
    2	-6	3	3	x	x	-3	x
> CC(C)Nc1nnc(SCC(=O)Nc2ccc3c(c2)C(=O)c2ccccc2C3=O)s1
    -10	-12	-4	x	11	i	50	-10
> COc1ccc(C)cc1NC(=O)CCNC(=O)Cn1cnc2ccccc2c1=O
    -4	-18	-3	2	-9	i	29	1
> O=C(CCN1C(=O)/C(=C\c2cccs2)SC1=S)Nc1ccccn1
    -21	-2	8	9	u	i	-8	-5
> O=C(C1CC1)N1CCC(c2nc(-c3ccc(S(=O)(=O)NCC4CCCO4)cc3)no2)CC1 (configuration not stated)
    -7	x	-17	x	1	i	19	-1
> COc1ccc(S(=O)(=O)N2CCC(N3CCCCC3)CC2)cc1
    2	2	2	-7	-1	i	29	-1
> CSCCC(=O)Nc1ccc(C(C)=O)cc1
    0	-12	-1	x	12	i	-12	-1
> [N-]=C=C1C(=O)NC(=O)C([n+]2ccc(-c3ccncc3)cc2)C1c1ccccc1C(F)(F)F (configuration not stated)
    -6	-6	-2	1	-4	i	-11	11
> O=C(CSc1nc(=O)n(CCN2CCOCC2)c2c1CCCC2)Nc1ccccc1Cl
    -5	-6	-3	24	x	x	x	x
> CC(=O)Nc1ccc(S(=O)(=O)NNC(=O)C(=O)NNc2ccccn2)cc1
    1	-33	-3	4	-3	i	29	0
> COC(=O)/C(=N/Nc1ccccc1C)N1CCCc2ccccc21
    -5	x	0	-8	-4	i	4	-1
> CC(C)c1ccc(Nc2ncc3c(n2)CCN(C(=O)Nc2ccc(F)c(Cl)c2)C3)cc1
    -2	-10	-25	38	x	x	x	x
> CCCN(CCC)C(=S)Nc1cc(C(=O)OC)ccc1C(=O)OC
    1	x	0	1	2	i	-3	2
> O=C(NCc1cccnc1)c1cc(C2CCCCN2S(=O)(=O)c2ccccc2)on1 (configuration not stated)
    0	-1	0	5	x	x	x	x
> COc1ccccc1C(=O)NC(=O)COC(=O)c1ncc(Cl)c(Cl)c1Cl
    -4	-8	-2	-4	x	i	4	x
> CC(C)C(C)NC(=O)COc1nc2ccccc2nc1N(C)C1CCCCC1 (configuration not stated)
    -2	-17	-6	17	1	i	x	1
> CCOc1ccc(Cl)cc1CNc1nnnn1CC
    1	-6	2	6	-1	i	-9	-3
> CCCC[C@@H]1CN=C(N)N1CCCC
    1	-17	0	-34	x	i	16	x
> Cc1ccc(C(=O)COc2cc(O)c3c(=O)cc(-c4ccccc4)oc3c2)cc1
    1	-21	-1	-13	-11	i	-11	-5
> COC(=O)c1cccc(C23CC4(C2)[C@H](CN(Cc2ccc(-c5ccccc5)cc2)[C@@H]4c2ccccc2)C3c2ccc(C(F)(F)F)cc2)c1 (some centres not stated)
    x	x	x	-29	-9	i	-6	-7
> COc1cccc(C(=O)NN/C(C)=C/C(=O)C(F)(F)C(F)(F)C(F)(F)F)c1
    8	-6	3	5	-1	i	72	-6
> CC1CCN(CC(=O)NCc2ccccc2)CC1
    -3	-11	5	-69	-8	i	-14	-5
> Cc1ccc(NC(=O)c2cc(S(=O)(=O)N3CCc4ccccc43)cn2C)cc1
    6	-15	-9	11	-6	i	1	-8
> O=C(COc1ccc([N+](=O)[O-])cc1)NNC(=O)Nc1ccc([N+](=O)[O-])cc1
    2	-15	-5	x	-2	i	3	3
> CCCn1nc(NS(=O)(=O)c2cccc3nonc23)c2cc3cc(C)ccc3nc21
    -2	-17	-3	-5	0	i	-17	5
> Cc1ccc(S(=O)(=O)/N=C2/C=C(Sc3ncn[nH]3)C(=O)c3ccccc32)c(C)c1
    x	x	x	x	12	x	103*	8
> CC(=O)Nc1ccc(N2C(=O)CSC2c2ccccc2[N+](=O)[O-])cc1 (configuration not stated)
    -1	-11	-2	-12	-5	i	-18	-23

Next part:
Results follow in this order: MT1-MMP act inh	Yeast UUG start	MT1-MMP act inh RFP	HIV Env fusion	eIF4H FP inh	Rce1 inh	CSC inhib	PABP polyA inh
> COc1ccc(CNC(=O)c2ccccc2NC(=O)C2=C(C)OCCS2)cc1
    0	-11	-4	1	x	x	x	x
> O=C(O)CCC(=O)Nc1cccc(-c2nc3ccccc3o2)c1
    2	-20	1	-45	6	i	x	7
> CC(C)C1Cc2c(sc3ncnc(NN)c23)CO1 (configuration not stated)
    0	-28	2	5	-5	i	11	-12
> C[C@@H]1NC(=O)[C@H](CCCN=C(N)N)NC(=O)c2cc([N+](=O)[O-])cc(I)c2NCCC[C@@H](C(N)=O)NC1=O
    8	-9	8	-21	-4	i	-1	-9
> Cc1cc(S(=O)(=O)NC2CCN(Cc3ccccc3)CC2)c(C)cc1Cl
    1	x	1	5	2	i	25	-3
> O=S(=O)(N/N=C\c1cccc(F)c1)c1ccccc1
    -4	-13	0	x	9	i	-15	-9
> COc1cc2c(cc1OC)C(NC(=O)c1ccc(C)cc1)CC2=O (configuration not stated)
    1	-17	2	-6	-6	i	-2	-6
> COc1cccc(C(=O)O/N=C(\N)c2ccccn2)c1
    1	-95	-2	39	-9	x	-9	7
> O=C(COc1ccccc1)NCCSCc1ccc(Cl)cc1
    0	x	4	-6	-15	i	3	-5
> Cc1noc(C)c1NC(=O)Nc1ccc2c(c1)C(=O)N([C@H](C)CO)C[C@@H](C)[C@@H](CN(C)S(=O)(=O)c1cn(C)cn1)OCCCC[C@H](C)O2
    2	7&10	4	-4[16.7 µM]	x	x	x	x
> CCOC(=O)N1CCN(C(=O)CNC(=O)c2nn(-c3ccc(OC)cc3OC)c(=O)c3ccccc23)CC1
    -2	-5	1	-5	0	i	-5	0

These rows are one share of the data, so the mix of outcomes need not match the whole.
